# Screening results (PubChem BioAssay)
# Vif TR-FRET: HIV-1 Vif–A3G interaction blockers – biochemical, TR-FRET, GST-Vif 1-94, biotin-A3G peptide, dose response retest, primary screen (AID 1117319) | 260,000 compounds, 0.57% hits | TR-FRET GST-Vif / biotin-A3G peptide binding; higher % means a stronger effect; test concentration not given here; strong numbers were not always called active | inhibition, %, or IC50 in µM where a hit was titrated;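 active = above the screen mean plus three standard deviations and confirmed in dose response; inconclusive = results disagree or hit not tested in dose response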;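 also: Vif residues 1-94 fused to GST binding biotinylated APOBEC3G peptide 110-148; 0% = full assay without inhibitor and 100% = GST in place of GST-Vif; retest series ran down from 100 µM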
# E coli growth: blocks Escherichia coli growth. OD600, 23 h; stronger effect = lower value. OD600 absorbance (no concentration beside the values). 330,000 compounds, 0.21% hits. AID 1053175;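 active = OD600 absorbance below the run mean of sample wells minus 3.6 SD, in any replicate, cut at about 0.56 in these data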;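 also: stock transfer was 300 nL into about 60 µL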
# rRNA inh HTS: inhibits bacterial ribosomal RNA function over humanized ribosomes; GFP signal change (wild-type ribosome), % (concentration not given with the values); 350,000 compounds, 1.6% hits; E. coli WT GFP vs humanized-ribosome RFP mutants, fluorescence, 24 h; stronger effect = lower value; DMSO median 0, no signal -100;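 active = significant combined selectivity score with lowered wild-type GFP, culture density cut under 30%, mutant RFP and density less affected; inactive = any of these conditions unmet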; also: one replicate is shown; some compounds called inactive have numbers as strong as hits
# ALR inh: blocks human ALR sulfhydryl oxidase activity; P55789; purified ALR, DTT oxidation, H2O2 HRP-luminol luminescence; inhibition, % (concentration not given with the values); 290,000 compounds, 3.8% hits;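 active = mean and each replicate at 75% or more; inconclusive = only one of the two met; inactive = neither met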;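 also: stock transfer was 7.5 nL into about 7.5 µL; 0% = neutral wells and 100% = wells with inactivated enzyme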
# Target sequence (P55789 whole entry, looked up): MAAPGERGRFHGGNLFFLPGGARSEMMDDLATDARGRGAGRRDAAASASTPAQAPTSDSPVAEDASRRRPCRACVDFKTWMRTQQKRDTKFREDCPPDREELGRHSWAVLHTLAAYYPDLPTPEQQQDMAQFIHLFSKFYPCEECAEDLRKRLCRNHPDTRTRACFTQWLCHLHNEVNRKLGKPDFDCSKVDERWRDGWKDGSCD
# HNF4A DNA FP: change in binding of human HNF4 alpha to DNA. P41235. HNF4a-FITC DNA binding, fluorescence polarization, 1 h. activity change, % at 10 µM. 360,000 compounds, 0.3% hits. AID 1224865; in the data active = activity change above about 30%, passing the limit was not always enough;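 also: controls were the assay level and a saturating level of protein; the project sought stronger binding though the title names inhibitors; some compounds called inactive have numbers as strong as hits; positive values seem to mean higher polarization but the record does not say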
# Target sequence (P41235 whole entry, looked up): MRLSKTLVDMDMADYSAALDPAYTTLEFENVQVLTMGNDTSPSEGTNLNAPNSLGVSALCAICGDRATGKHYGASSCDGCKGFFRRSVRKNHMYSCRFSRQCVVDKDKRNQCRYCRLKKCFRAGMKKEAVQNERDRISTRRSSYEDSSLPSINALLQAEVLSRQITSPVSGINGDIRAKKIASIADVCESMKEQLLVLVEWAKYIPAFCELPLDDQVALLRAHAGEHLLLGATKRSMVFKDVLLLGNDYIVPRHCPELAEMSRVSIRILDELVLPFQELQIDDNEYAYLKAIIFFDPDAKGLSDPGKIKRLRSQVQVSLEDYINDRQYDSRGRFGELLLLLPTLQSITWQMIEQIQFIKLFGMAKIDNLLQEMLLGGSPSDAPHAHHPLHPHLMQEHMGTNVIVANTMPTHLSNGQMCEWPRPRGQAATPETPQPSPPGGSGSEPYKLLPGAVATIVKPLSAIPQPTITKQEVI
# FGF22 binding: shifts melting point of recombinant human FGF22; Q9HCT0; recombinant FGF22 thermal shift, SYPRO orange fluorescence; percent of sucrose octasulfate shift, DMSO zero; calls only at 9.99 µM; 340,000 compounds, 1.5% hits; AID 651658;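 active = melting point raised past a set limit in the mean and every replicate; inconclusive = no clear call; three in four hits are not shown here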
# Target sequence (Q9HCT0 whole entry, looked up): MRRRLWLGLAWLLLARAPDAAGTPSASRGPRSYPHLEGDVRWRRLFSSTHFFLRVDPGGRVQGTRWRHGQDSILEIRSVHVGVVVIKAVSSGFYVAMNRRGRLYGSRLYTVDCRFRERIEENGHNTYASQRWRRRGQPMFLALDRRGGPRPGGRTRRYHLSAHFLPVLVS
# MLL AF4-AF9 inh: blocks AF4 peptide binding to human AF9. P42568. AlphaScreen, biotin-AF4 peptide binding to FLAG-AF9. inhibition, % at 10 µM. 350,000 compounds, 0.47% hits. AID 651704;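 active = every replicate reaching a set inhibition limit, whatever the replicate mean, cut at about 25% in these data; inconclusive = mean inhibition reaches that limit but some replicates miss it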;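 also: 0% = plate neutral control median and 100% = total signal loss; the record names both 10 and 1 µM as test concentration; the first replicate is given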
# rRNA inh HTS OD600: also measured in rRNA inh HTS; calls as there; OD600 change, %; measured here: OD600 growth;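 optical density of the mix in the first replicate; 0 = DMSO median and -100 = no signal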
# rRNA inh HTS RFP: further read-out of rRNA inh HTS, marked with its call; RFP signal change, %; measured here: RFP humanized mutant strains;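 first replicate; 0 = DMSO median and -100 = no signal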
# Active calls of the source: *; i = inactive; ? = inconclusive; nt = no result given; & = joins results of further samples. The list is partial. The share of hits here may be higher or lower than overall.
SMILES,Vif TR-FRET,E coli growth,rRNA inh HTS,rRNA inh HTS OD600,rRNA inh HTS RFP,ALR inh,HNF4A DNA FP,FGF22 binding,MLL AF4-AF9 inh
CC(=O)Nc1ccc(S(=O)(=O)Nc2c(C)n(C)n(-c3ccccc3)c2=O)cc1,-9%,0.72,nt,nt,nt,1,3.1,nt,nt
C=CCn1c(SCC(=O)c2cc(C)n(Cc3cccs3)c2C)nnc1-c1ccncc1,0%,0.68,nt,nt,nt,1,1.9,nt,nt
CCC12CC3CC(C1)CC(C(=O)NNC(N)=O)(C3)C2,24%,0.69,4,-4,3.3,-5,0.1,i,0.0
CCC(C)(c1ccc(C=O)s1)c1ccc(C=O)s1,4%,0.7,nt,nt,nt,-1,1.9,nt,nt
CN(C)C(=O)C[C@H]1CC[C@H]2[C@@H](COC[C@H](O)CN2Cc2nccs2)O1,nt,nt,5,9,-0.2,nt,nt,i,-5.0
CCc1n[nH]c(=S)n1/N=C/c1cccc2ccccc12,nt,nt,3,5,-1.9,2,2.0,i,0.8
Cc1ccc(C(=O)N/C(=C\c2ccc(Cl)cc2)C(=O)NCCN2CCOCC2)cc1,nt,0.69,1,12,0.1,nt,-6.0,i,0.8
CCC1=C(OC(=O)N(CC)CC)N2C(=O)OC(=NCC3CC3)[C@]2(C)[C@H]2C1=CC[C@H]1C(=O)N(CC)C(=O)[C@H]12,31%,nt,3,0,-5.6,3,0.5,i,-4.8
COc1ccc(S(=O)CC(=O)Nc2ccccc2Cl)cc1 (centres undefined),-3%,0.68,10,8,-9.3,-4,1.3,i,-19
COc1ccc(OC)c(CC(=O)Nc2ccc3c(c2)CCC3)c1,-1%,0.69,-7,-10,4.0,-8,2.2,i,?
O=C(NCc1ccco1)c1cc(-c2ccco2)on1,22%,0.72,-1,0,-4.3,-2,-1.6,i,0.0
CCOc1cc(/C=N/NC(=O)CCc2n[nH]c(=O)[nH]c2=O)ccc1O,5%,nt,9,11,-1.0,99*,0.7,nt,-2.3
Cc1nc2ccc(C(=O)N3CCSCC3)cc2s1,2%,0.69,nt,nt,nt,-5,-26,nt,nt
Cc1cc(NC(=O)CSc2ccc3nnc(-c4cccc(F)c4)n3n2)no1,-9%,0.68,8,4,-2.2,-1,-3.5,i,-1.9
CCOc1ccc(C=Nc2cccc3ncccc23)cc1,-2%,0.67,9,6,4.6,39,0.1,i,-2.0
COc1cc2[nH]c(=O)n(CCCCCC(=O)NCCCN3CCOCC3)c(=O)c2cc1OC,2%&0%,0.67,nt,nt,nt,-2,1.8,nt,nt
C[C@@H]1CN([C@@H](C)CO)C(=O)Cc2cc(NS(C)(=O)=O)ccc2O[C@H]1CN(C)S(=O)(=O)c1cccs1,nt,nt,0,4,-3.4,nt,nt,i,-1.0
O=C(CN1CCOCC1)Nc1ccc([N+](=O)[O-])cc1,nt,0.64,6,12,5.8,-6,-1.9,i,0.0
CCN(CC(=O)Nc1ccc(NC(C)=O)cc1)C(=O)C1CC(=O)N(c2ccc3c(c2)OCCO3)C1 (centres undefined),-6%,nt,21,24,3.0,nt,19,i,28*
Cc1c(Cl)cccc1NC(=O)CSc1ncnc2c1cnn2CCO,nt,0.65,4,11,0.0,-20,3.1,i,-0.9
CCOC(=O)[C@]12CCC=C1N(Cc1ccco1)C(=O)[C@H](CC(=O)NCc1ccc(OC)c(OC)c1)C2,nt,nt,1,15,-2.8,nt,3.1,i,1.2
Cc1ccc2c3c1C(=O)C(=O)N3C(C)(C)CC2C (centres undefined),2%,0.67,nt,nt,nt,0,4.6,nt,nt
CC(=O)Nc1ccc(NCCc2ccco2)cc1,nt,nt,9,21,-1.7,nt,-0.4,i,-1.5
FC(F)(F)c1nc2ccccc2n1CCNc1nc(CN2CCCCC2)cs1,nt,0.69,17,6,0.9,-10,-1.1,i,0.7
CCCC(C(=O)NC(C)(C)C)N(Cc1ccccc1Cl)C(=O)c1snc(C(N)=O)c1N (centres undefined),nt,0.72,-18,-40,2.1,nt,0.2,nt,4.5
Cc1ccnc(NC(=O)c2cccc(NC(=O)c3ccc(Cl)cc3)c2)c1,nt,nt,-17,-23,2.6,nt,2.2,i,-2.4
C[C@H]1CN([C@@H](C)CO)C(=O)c2cc(C#CCN(C)C)cnc2O[C@@H]1CN(C)C(=O)CN1CCOCC1,nt,nt,6,14,-0.6,nt,nt,i,-1.3
COc1ccc(Cl)cc1NC(=O)CN(C)C(=O)c1ccc(-n2nc(C)cc2C)cc1,nt,0.71,-9,-19,2.2,5,2.6,i,0.6
Cc1cc(C(=O)NN=C2CC(=O)CC(C)(C)C2)c(C)o1,1%,0.68,8,7,44,nt,-1.1,i,1.0
CSc1ncccc1C(=O)Nc1nnc(C2CC2)s1,12%,0.59,11,7,1.9,2,2.9,i,-1.3
Cc1cc(NC(=O)c2cc(-c3cccc(Cl)c3)on2)no1,-2%,0.75,nt,nt,nt,-14,-1.0,nt,nt
CCOC(=O)C1CCCN(C(=O)CCCn2c(=O)c3cccn3c3cccnc32)C1 (centres undefined),?,0.71,-2,6,-0.4,15,0.7,i,-2.8
O=C(CSc1n[nH]c(-c2ccccc2Cl)n1)NC1CCCCC1,nt,0.62,-1,-18,-2.1,4,1.7,i,0.2
O=C(Cc1ccc(-n2c(=O)c3ccccc3n(Cc3ccccc3Cl)c2=O)cc1)NCC1CCCO1 (centres undefined),5%,0.71,14,4,-4.0,-1,8.1,i,?
COc1ccc2sc(-c3ccccc3OC)c(C#Cc3cncn3C)c2c1,-27%,0.72,-13,-23,12,nt,-0.7,i,1.4
Cc1ccc(NN=C2C(=O)OC(C)(C)OC2=O)c(C)c1,1%,0.69,3,3,-6.8,nt,-2.7,i,8.3
Clc1ccc(C2=NCCn3nc4ccccc4c32)cc1,nt,0.64,-13,-18,-9.7,20,2.5,i,8.9
CS(=O)(=O)NCCNC(=O)c1cc(OCC(F)(F)F)ccc1OCC(F)(F)F,nt,0.7,-1,7,0.6,-20,2.1,i,-2.8
Cn1nnnc1SCC(=O)NCCc1ccc(Cl)cc1,5%,0.75,nt,nt,nt,-3,2.4,nt,nt
CC1=NN(c2ccc(C)cc2)C(=O)/C1=C/c1ccc(-c2cc([N+](=O)[O-])ccc2O)o1,27%,0.68,-1,5,-2.0,nt,-7.3,i,2.0
O=C(Cc1ccccc1)N1CC2(C1)[C@H](c1ccccc1)[C@H](CO)N2C(=O)c1cccnc1,nt,nt,0,-1,-1.1,nt,nt,i,0.6
CCCCCCCCN1C(=O)[C@@H](CC(=O)N2CCN(C(=O)OCC)CC2)C[C@@]2(C(=O)OC)C1=C[C@H](C(C)(C)C)O[C@@H]2C,nt,nt,7,8,-3.2,nt,nt,i,3.3
COc1ccc(NC(=O)CN(C)C(=O)c2ccccc2Sc2ncnc3sc(C)c(C)c23)cc1,nt,0.69,-11,-20,5.2,1,-2.2,i,-8.6
O=c1c2cc(N3CCOCC3)ccc2[nH]c(=S)n1Cc1ccccc1Cl,-16%,0.71,7,7,4.3,0,2.4,i,-1.5
Clc1ccc(-c2ccnc3nc(N4CCOCC4)nn23)c(Cl)c1,nt,0.7,5,4,-0.6,nt,-1.5,i,6.5

# Quoted at random: 2 records from the list, in no set order.
SMILES,Vif TR-FRET,E coli growth,rRNA inh HTS,rRNA inh HTS OD600,rRNA inh HTS RFP,ALR inh,HNF4A DNA FP,FGF22 binding,MLL AF4-AF9 inh
CS(=O)(=O)NCCNC(=O)c1cc(OCC(F)(F)F)ccc1OCC(F)(F)F,nt,0.7,-1,7,0.6,-20,2.1,i,-2.8
Cn1nnnc1SCC(=O)NCCc1ccc(Cl)cc1,5%,0.75,nt,nt,nt,-3,2.4,nt,nt

# Further results.
SMILES,Vif TR-FRET,E coli growth,rRNA inh HTS,rRNA inh HTS OD600,rRNA inh HTS RFP,ALR inh,HNF4A DNA FP,FGF22 binding,MLL AF4-AF9 inh
O=Nc1c(O)c2ccccc2c2ccccc12,nt,0.53,-41,-70,-14,nt,-0.1,i,8.7
CC(C)n1c(NCc2ccc(Cl)cc2)nc2ccccc21,nt,0.69,-33,-40,-2.3,nt,-1.4,i,1.4
O=C(COc1ncnc2ccccc12)N1CCOCC1,6%,0.73,nt,nt,nt,-2,2.5,nt,nt
C[C@H]1CCCCO[C@@H](CN(C)C(=O)Nc2ccccc2)[C@@H](C)CN([C@@H](C)CO)C(=O)c2cc(NC(=O)Nc3ccc(F)cc3)ccc2O1,nt,nt,-3,0,-2.2,nt,nt,i,3.0
CCC(=O)Nc1ccc2c(c1)C(=O)N(C)C[C@@H](OC)[C@@H](C)CN(C(=O)c1cnccn1)[C@H](C)CO2,nt,nt,0,4,-2.2,nt,nt,i,1.0
O=C(CN1CCCCCC1)N1c2ccccc2Sc2ccc(C(F)(F)F)cc21,-3%,0.66,nt,nt,nt,nt,1.2,nt,nt
O=C(c1ccc2c(c1)N(Cc1ccccc1)CCS2)N1CCCCC1,0%,0.76,-38,-56,-13,99*,-4.4,i,1.0
CCC(=O)Oc1ccc2ccccc2c1CNC(=O)c1ccccc1,nt,0.68,nt,nt,nt,3,-0.6,nt,nt
O=C(NCCC(=O)N1CCCCC1)c1ccccc1Cl,nt,0.7,6,5,-0.3,-2,2.3,i,-0.2
COc1ccc(S(=O)(=O)NCCN2CCOCC2)cc1Br,nt,0.6,18,21,0.8,-6,-3.9,i,4.0
O=C(COC(=O)CNC(=O)C1CCCCC1)Nc1ccc(Cl)cn1,-5%,0.63,nt,nt,nt,-8,1.1,nt,nt
O=C1c2ccccc2-c2c1cccc2C(=O)N(CCO)CCO,0%,0.7,nt,nt,nt,-4,-1.4,nt,nt
COc1ccc(S(=O)(=O)N2CCCC(C(=O)N3CCN(C)CC3)C2)cc1Cl (centres undefined),nt,0.67,1,0,-1.3,1,-0.5,i,-4.5
CSc1ccc(CCNC(=O)CS(=O)(=O)Cc2nc(-c3ccccc3F)oc2C)cc1,nt,0.7,0,1,0.2,-13,-1.3,i,-1.4
CCN1CCN(C(=O)c2ccc(N3CC4CC(C3)c3cccc(=O)n3C4)c([N+](=O)[O-])c2)CC1 (centres undefined),17%,0.69,20,11,1.0,-2,0.3,i,-1.4
COCCNC(C)C(=O)Nc1ccc(Br)cc1 (centres undefined),-1%,0.72,nt,nt,nt,-15,2.8,nt,nt
COc1ccc(C)cc1Nc1n[n+](-c2ccccc2)c(-c2ccc(OC)c(OC)c2OC)s1,nt,0.68,2,2,1.7,0,-4.1,i,nt
O=C(Nc1ccc(S(=O)(=O)NC2=NCCCCC2)cc1)c1cccs1,nt,0.66,-2,6,-1.4,nt,1.8,i,-2.1
N#C/C(=C(/O)COC(=O)CCc1ccc(S(=O)(=O)N2CCOCC2)cc1)c1nc2ccccc2[nH]1,13%,nt,nt,nt,nt,-15,8.8,nt,nt
Cc1ccc(C(=O)OCC(=O)N(C)c2ccccc2)c(C)c1,3%,0.7,-4,-7,0.7,-26,1.0,i,1.3
COC(=O)c1ccc(CNC(=O)Cn2cc(C)c(=O)[nH]c2=O)cc1,nt,nt,-2,2,-3.8,nt,2.1,i,-0.4
Cc1ccc(C2Nc3ccccc3C(=O)N2CCN2CCNC2=O)cc1 (centres undefined),-12%,0.67,4,-2,1.3,7,-1.8,i,-0.4
Cc1cc(C)cc(OCC(=O)OCc2nnc(-c3ccccc3)o2)c1,-14%,0.67,5,13,4.6,nt,4.8,i,-2.1
CC1(C)O[C@@H]2C[C@H]3[C@@H]4C[C@H](F)C5=CC(=O)C=C[C@]5(C)[C@H]4[C@@H](O)C[C@]3(C)[C@]2(C(=O)CO)O1,nt,nt,2,8,-0.1,2,2.3,i,1.2
